# From PubChem
# AmpC nodet inh: blocks E. coli AmpC beta-lactamase in absence of detergent; AmpC nitrocefin hydrolysis, absorbance 480 nm, no detergent; potencies from a single point are estimates; actives 1.8% (n = 71,000); Potency, µM (titrated, usually from 28.7 µM), for the others: top-dose activity change, negative = inhibition; P00811; active = falling curve, for most hits resting on a single point; inconclusive = weak or doubtful change; inactive = flat or rising curve; further: % of control where 0% means no effect; about half of the hits show no inhibition at the top dose; a quarter of the inactives give rising signals
# Target sequence (P00811 whole entry, looked up): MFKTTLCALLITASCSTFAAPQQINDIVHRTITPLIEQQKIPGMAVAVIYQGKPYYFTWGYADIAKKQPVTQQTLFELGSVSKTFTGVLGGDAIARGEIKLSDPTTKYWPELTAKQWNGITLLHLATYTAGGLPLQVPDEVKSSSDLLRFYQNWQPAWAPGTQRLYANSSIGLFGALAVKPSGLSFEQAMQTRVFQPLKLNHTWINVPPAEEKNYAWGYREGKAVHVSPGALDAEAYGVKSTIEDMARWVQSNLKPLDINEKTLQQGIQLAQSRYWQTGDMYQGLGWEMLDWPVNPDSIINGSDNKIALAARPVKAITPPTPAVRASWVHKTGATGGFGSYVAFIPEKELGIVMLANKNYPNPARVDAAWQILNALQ
#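 Enzyme, pH 7.0 phosphate. Compound titrations were pre-incubated with AmpC for 15 min at room temperature before nitrocefin (stock 800 uM) addition; product formation was recorded at 480 nm every 20 s for 4 min.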
# * marks the source's active call; other numbers are inactive results; ? = inconclusive; [ ] = another dose, or the depositor's remark. Potency means the concentration at half of the fitted maximal effect.
Compound | AmpC nodet inh
CCCC(=O)c1cc(-c2nc3ccccc3n2C)n(C)c1 | 14.9%
CC(C)(C)n1nc2c(c1NC(=O)c1ccco1)CS(=O)C2 (stereo not drawn) | -6.6%
COc1ccc(C(=O)CSc2nnc(-c3ccccc3)o2)cc1 | 11.1%
CCN(CC)c1ccc(C=N/C(C#N)=C(\N)C#N)cc1 | -6.5%
CCSc1nnc(-c2cccc(S(=O)(=O)N(CC)CC)c2)n1Cc1ccccc1 | 114.1%
Cc1ccc(C)c(NC(=O)C2CC(=O)N(C(C)C)C2)c1 (stereo not drawn) | -4.9%
CCCOC(=O)Cc1c(O)c2ccccc2[nH]c1=O | -1.6%
Cc1cc(NC(=O)c2cn(C3CCCCC3)c(=O)c3c2c2ccccc2n3C)no1 | 52.6%
COc1c(C)cccc1C(=O)Nc1ccc(N2CCN(S(C)(=O)=O)CC2)cc1 | 53.3%
CCOc1ccccc1NC(=O)CSc1nnnn1Cc1ccccc1 | 2.7%
Cc1ccc(N(CC(O)CN2CCCC2)S(=O)(=O)c2ccccc2)cc1 (stereo not drawn) | 38.9%
Cc1ccc(-c2cc(-c3ccc(Cl)cc3)c(C#N)c(N)n2)o1 | -3.7%
COC(=O)C1C2c3ccccc3OC1(C)N=c1s/c(=C/c3cnn(C)c3C)c(=O)n12 (stereo not drawn) | 120.2%
Cc1ccc(-c2nn3c(C)nnc3c3ccccc23)cc1S(=O)(=O)N1CCN(CCO)CC1 | 109.6%
O=C(CN1CCCc2ccccc21)NC(=O)NCc1ccco1 | -14.8%
CCSc1nnc(NC(=O)CSc2nc(CC)nc3c2c(=O)n(C)c(=O)n3C)s1 | -7.2%
CCCN1C(=O)c2cc(C(=O)NC3CCCCCC3)ccc2C1O (stereo not drawn) | 3.98µM*[single pt active]
CC1(C)Cc2c(sc3nc(-c4cccs4)n(N)c(=O)c23)CO1 | 54.8%
Cn1c2ccccc2c(=O)n2c(=O)c3ccccc3cc12 | 3.6%
CCn1c(SCC(=O)NCc2cccs2)nnc1-c1cccs1 | 12.3%
Cc1nc2c(-c3ccc(F)cc3)c(C)nn2c(C)c1CCC(=O)NC(C)CCc1ccco1 (stereo not drawn) | 132.9%
Cc1ccc(CNC(=O)c2cccc(-n3cnnn3)c2)cc1 | -8.5%
N#CC1=C(N)SC(N)=C(C#N)C1CCC1CCCCC1 | -18.6%
CCOC(=O)CN1CC23C=CC(O2)C(C(=O)NCc2ccc(C)cc2)C3C1=O (stereo not drawn) | 2.3%
CN(C)C=Nc1ncc2c3ccccc3n(Cc3ccccc3)c2c1C#N | 83.3%
CC(Sc1nc2c(c(=O)n(C)c(=O)n2C)n1Cc1cc2c(cc1Cl)OCO2)C(=O)O (stereo not drawn) | 4.3%
CCC(C)n1cnc2c(c1=O)c1nc3ccccc3nc1n2Cc1ccccc1OC (stereo not drawn) | 108.6%
Cc1ccc2c(c1)N(Cc1ccccn1)C(=O)C(C)O2 (stereo not drawn) | 6.5%
CCOC(=O)CSc1nnc(Cc2cc(=O)[nH]c(=O)[nH]2)n1-c1cccc(OC)c1 | -6.3%
CN(CC(=O)N1CCc2ccccc21)S(=O)(=O)c1cccs1 | -18.0%
O=C(NCCCN1CCCC1=O)c1cccc(C(F)(F)F)c1 | 2.2%
CN(C)c1ccc(-c2nc(NCCc3cnc[nH]3)c3ccccc3n2)cc1 | 1.9%
Cc1ccc(SCc2nc(-c3ccccn3)no2)cc1 | 8.6%
CC(O)c1c(OCc2ccccc2)ncnc1OCc1ccccc1 (stereo not drawn) | 5.8%
COc1ccc(-c2nc3cnc(N4CCNCC4)nc3n(CCC#N)c2=O)cc1 | 43.3%
Cn1c(Cn2c(=O)sc3ccccc32)nnc1SCC(=O)NCc1ccco1 | 20.5%
COc1cccc(CNc2ccc(N3CCCCC3)cc2)c1OC | 20.6%
O=C(Oc1c(CN2CCOCC2)cc(Cl)c2cccnc12)c1ccc(F)cc1 | 59.0%
COc1ccc(CCNC(=O)c2ccc3nc(-c4ccco4)c(-c4ccco4)nc3c2)cc1OC | 91.9%
CCN(CC)S(=O)(=O)c1ccc(Br)c(OC)c1 | 4.7%
COc1cc(C(=O)N2CCN(c3cc(Cl)ccc3Cl)CC2)cc(OC)c1OC | 26.6%
COc1ccc(NC(=O)CSc2nnc(CNc3ccc(F)cc3)o2)c(OC)c1 | 15.1%
Cc1c(C(=O)NCCCN2CCOCC2)sc2nc(-c3ccc(F)cc3)cn12 | 76.7%
COc1cc(C2C(C(C)=O)=C(C)Nc3ncnn32)ccc1O (stereo not drawn) | 1.7%
CC1=Nn2c(nnc2-c2cc(-c3ccccc3)n[nH]2)SC1 | -8.9%
Cc1nn(-c2ccccc2)c2nc(N)c(C#N)c(-c3ccc(F)cc3)c12 | 2.6%
CCOC(=O)C1CCN(CCC(=O)Nc2cccc(Cl)c2C)CC1 | 26.2%
O=C(NCc1cccs1)C(Cc1ccccc1)n1cccc1 (stereo not drawn) | -13.0%
CCOC(=O)c1ccc(N2C(=O)CC(N3CCN(Cc4ccccc4)CC3)C2=O)cc1 (stereo not drawn) | 22.4%
O=C(NCCCN1CCC(Cc2ccccc2)CC1)C1CCC(=O)N1C1CCCC1 (stereo not drawn) | 66.1%

# (listing goes on)
Compound | AmpC nodet inh
Oc1ccc(Cl)cc1Cc1cc(Cl)ccc1O | ?
Cn1c(C(=O)O)cc2cc(F)ccc21 | -16.3%
Cn1c(=O)c2c(nc(NCCCN3CCOCC3)n2Cc2ccc(Cl)c(Cl)c2)n(C)c1=O | 110.4%
O=C(CCC(=O)OCCCC(F)(F)C(F)(F)F)Nc1ccccc1 | 8.7%
CCC(C)[C@H](NC(=O)NCc1ccccc1Cl)C(=O)O (stereo partly drawn) | -7.2%
Cc1cc(NS(=O)(=O)c2ccc(NC(=O)c3ccoc3C)cc2)nc(C)n1 | -22.2%
Nc1ccccc1S(N)(=O)=O | -8.4%[12.8 µM]
O=c1[nH]c(Cc2ccccc2)nc2c1oc1ccccc12 | -10.7%
O=C(CC12CC3CC(CC(C3)C1)C2)N1CCCOC1 | 22.4%
COc1ccccc1Cn1c(=O)c2ccccc2n2c(Sc3ncnc4sccc34)nnc12 | 56.6%
CNc1nc(C)c(C(=O)OCc2ccccc2)s1 | -1.7%
O=C(CS(=O)(=O)Cc1ccccc1)N1CCN(c2cccc(C(F)(F)F)c2)CC1 | 30.6%
CC(=O)c1ccc(N2CCN(C(=O)c3ccc(Br)cc3)CC2)c(F)c1 | 71.7%
OC(C#CCN1CCCC1)c1ccccc1 (stereo not drawn) | -3.7%
C1C[C@@H]2CN(CCCN3CCOCC3)[C@@H](C1)O2 | 6.6%[5.75 µM]
O=C(CN1C(=O)C2CC=C(Cl)CC2C1=O)Nc1ccc(C(=O)O)cc1 (stereo not drawn) | -3.6%
O=C(Nc1nc2n(n1)C(c1ccccc1)C=C(c1ccccc1)N2)c1ccco1 (stereo not drawn) | ?
Cc1ccc(OCc2occc2C(=O)O)cc1 | -4.8%
C=CCNc1ncnc2c1[nH]c1ccccc12 | -24.4%
O=C(CSc1ncn(-c2ccccc2)n1)NCc1ccccc1 | 17.0%
CCOc1ccc(C2SCC(=O)N2c2c(C)n(C)n(-c3ccccc3)c2=O)cc1 (stereo not drawn) | 46.3%
CS(=O)(=O)N(CC(=O)NCCC1=CCCCC1)c1ccc2c(c1)OCO2 | 37.2%
O=C(O)CCN1C(=O)c2ccc(NC(=O)c3cccs3)cc2C1=O | 10.2%
O=[N+]([O-])c1cc([As](=O)(O)O)ccc1O | -8.9%[12.8 µM]
COc1ccc(Cl)cc1N1C(=O)C2CCCN2C1c1ccccc1F (stereo not drawn) | 41.1%
Oc1ccc2ccccc2c1/C=C\c1ccc2c(Br)cc(Br)c(O)c2n1 | -17.3%[5.75 µM]
COc1c(F)c(F)c(C(=O)Nc2ccccc2N2CCN(C(C)=O)CC2)c(F)c1F | 58.8%
CCN1C(=O)NC2C1N(S(C)(=O)=O)CCN2S(C)(=O)=O (stereo not drawn) | 5.8%
COc1cc2c(C(=O)NCc3ccc4c(c3)OCO4)cn(C)c(=O)c2cc1OC | 109.1%
Cc1cc(C(=O)O)ccc1-n1c(C)ccc1C | -10.0%
Cc1ccc(Cl)cc1N1CCN(C(c2ccc(C#N)cc2)c2nnnn2C2CCCC2)CC1 (stereo not drawn) | 3.5%
O=C(OCC(=O)N(C1CCCCC1)C1CCCCC1)c1cnccn1 | 66.9%
COc1ccccc1NC(=O)CSc1ncnc2c1oc1ccccc12 | 23.6%
CC(C(=O)N1CCN(c2ccccc2)CC1)N1C(=O)C2CC=CCC2C1=O (stereo not drawn) | 37.7%
COc1ccccc1NC(=O)N1CCN(c2ccc3nncn3n2)CC1 | 3.98µM*[single pt active]
CC(=O)c1c(C(C)=O)c(C)n(Cc2ccc3c(c2)OCO3)c1C | 10.5%
COc1ccc2cc(CCNC(=O)C(C)(C)C)c(=O)[nH]c2c1 | 2.3%
Cc1ccccc1CNc1ncnc2c1ncn2[C@@H]1O[C@@H](CO)[C@H](O)[C@@H]1O | 2.1%
COc1ccccc1-n1nnnc1SCc1cc2c(cc1Br)OCO2 | 4.3%
CCOC(=O)N1CCC(NC(=O)c2cc(C(=O)NCc3ccc(F)cc3)ccc2CO)CC1 | 38.6%
CCC(=O)OCN1C(=O)C=CC1=O | 1.7%[5.75 µM]
CCCCn1c(O)c(C=NCCCn2ccnc2)c(=O)[nH]c1=O | -0.2%
O=C(COC(=O)c1cc(S(=O)(=O)N2CCOCC2)ccc1O)NCC1CCCO1 (stereo not drawn) | 6.8%
CCOc1ccc(-c2[nH]nc3c2C(c2cccnc2)C(C#N)=C(N)O3)cc1 (stereo not drawn) | -10.9%
N#Cc1nc(Cc2cccc3ccccc23)oc1NCCCn1ccnc1 | 64.8%
Cn1c(=O)[nH]c(=O)c2c1nc(NCCCn1ccnc1)n2CCOc1ccccc1 | -6.2%
COc1cc(OC)cc(C(=O)Nc2ncc3c(n2)CC(C)CC3=O)c1 (stereo not drawn) | 12.5%
Cc1nn(CC(O)Cn2cnc3c2c(=O)n(C)c(=O)n3C)c(C)c1Br (stereo not drawn) | 5.9%
CC1=CC(C)(C)N2C(=O)C3(SCC(=O)N3c3ccc(O)cc3)c3cc(C)cc1c32 (stereo not drawn) | 17.6%
COc1ccc(C)cc1NC(=O)c1cc2ccccc2o1 | 1.6%

# (listing goes on)
Compound | AmpC nodet inh
CCN(CC(=O)Nc1c(C(=O)OC)[nH]c2ccc(C)cc12)c1ccc2c(c1)OCO2 | 68.2%
O=C(CN1CCOCC1)n1c2ccccc2c2ccccc21 | 83.2%
c1csc(-c2nn3c(Cn4cnc5ccccc54)nnc3s2)c1 | 10.9%
COc1ccc(-c2cn3c4c(sc3n2)CCCC4)cc1 | 45.3%
O=C(CSc1nnnn1C1CCCC1)Nc1ccc2c(c1)OCCO2 | -15.3%
COC(=O)C1CCN(C(=O)N2CCOCC2)CC1 | -2.5%
Cc1ccc2c(c1)C1OCCC1C1N2C(=O)C2C(C(=O)O)C3C=CC21O3 (stereo not drawn) | -2.1%
Cc1ccc(C)c(CSc2nnc(-c3cccnc3)o2)c1 | 68.8%
COC(=O)C1(CC(C)C)C=C2C(=C(c3ccccc3)C(=O)C2C)CN1 (stereo not drawn) | 37.5%
CCOC(=O)C1CCN(c2c(N(C)Cc3ccco3)c(=O)c2=O)CC1 | 13.0%
CCOC(=O)N1CCC(NC(=O)CCS(=O)(=O)c2ccc3c(c2)CCN3C(C)=O)CC1 | 9.6%
Cc1cccc(C)c1NC(=O)C1(N(Cc2ccco2)C(=O)c2ccccn2)CCCC1 | 24.7%
O=C(COC(=O)CNC(=O)C1CCCCC1)Nc1ccc(Cl)cn1 | -6.7%
Cc1ccc(C(=O)N2CCC(C(N)=O)CC2)cc1C | 0.4%
O=C(c1cccn2c(=O)c3cc(Cl)ccc3nc12)N1CCOCC1 | 13.0%
CC(NC(=O)c1ccccc1O)c1ccccc1 (stereo not drawn) | -10.8%
CN(C)c1ccc(CN(C(=O)COc2ccc(F)cc2)C2CCS(=O)(=O)C2)cc1 (stereo not drawn) | 61.1%
FC(F)(F)c1ccc2c(c1)nnn2C1CCN(Cc2nnnn2Cc2ccccc2)CC1 | 74.1%
COc1ccc(Cl)cc1NC(=O)c1ccco1 | -9.3%
CC1CCN(Cc2nc3c(c(=O)n(C)c(=O)n3C)n2Cc2cccc3ccccc23)CC1 | 6.6%

# The list goes on, starting with the last 6 of the part before.
Compound | AmpC nodet inh
O=C(c1cccn2c(=O)c3cc(Cl)ccc3nc12)N1CCOCC1 | 13.0%
CC(NC(=O)c1ccccc1O)c1ccccc1 (stereo not drawn) | -10.8%
CN(C)c1ccc(CN(C(=O)COc2ccc(F)cc2)C2CCS(=O)(=O)C2)cc1 (stereo not drawn) | 61.1%
FC(F)(F)c1ccc2c(c1)nnn2C1CCN(Cc2nnnn2Cc2ccccc2)CC1 | 74.1%
COc1ccc(Cl)cc1NC(=O)c1ccco1 | -9.3%
CC1CCN(Cc2nc3c(c(=O)n(C)c(=O)n3C)n2Cc2cccc3ccccc23)CC1 | 6.6%
Nn1nnc2ccccc21 | 3.4%
CS(=O)(=O)N(CC(=O)N1CCN(c2cccc(Cl)c2)CC1)C1CCCCC1 | 96.4%
C=CCN1C(=O)C2(/C(=C(\O)c3ccc4c(c3)OCCO4)C(=O)C(=O)N2CCCOC)c2ccccc21 (stereo not drawn) | 3.1%
O=C(c1cnccn1)N1CCC[C@@]2(CCN(C(c3ccccc3)c3ccccc3)C2)C1 | 97.3%
Cc1ccc(C(=O)OCC(=O)Nc2sc3c(c2C#N)CCCCC3)cc1NC(=O)c1ccco1 | ?
Cn1c(C(=O)N(Cc2ccccc2)Cc2ccccn2)cc2sccc21 | 83.6%
Cc1cc(NS(=O)(=O)c2ccccc2)n(-c2ccccc2)n1 | -6.8%

# Only part of the results is shown (hit frequency here may not be typical).
